Sfp PPTase inh = inhibitors of Bacillus subtilis Sfp phosphopantetheinyl transferase; 310,000 compounds, 3.5% hits; Q9F4F7; Biochemical Sfp PPTase activity, qHTS; Potency, µM, inactives show max response, negative = inhibition, hits mostly inhibitors; active = well fitted inhibition curve with a large enough effect; inconclusive = small, poorly fitted or top-dose-only effect, or another doubt; inactive = no such curve, though single readings can be large or run the other way;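 also: the enzyme is Sfp with the accession as filed and its product quenches rhodamine fluorescence; potency is read from the fitted curve at half-maximal effect; 0% = enzyme reaction without inhibitor and -100% = no enzyme wells; top concentration of the series not given in the record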
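Reaction rates are the 30-min fluorescence difference (ex 525, em 598 nm) in wells containing 15 nM Sfp, 5 uM rhodamine-CoA and 12.5 uM BHQ-2-YbbR at pH 7.6 with 10 mM MgCl2.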
TRPML1 inh = blocks the human TRPML1 channel | TRPML1-inducible cells, Ca2+ dye fluorescence, FDSS; stronger effect = lower value; inhibition of EC80 agonist-evoked calcium signal | activity change, negative = inhibition, % (concentration not given with the values) | 390,000 compounds, 0.02% hits | AID 624415; in the data active means activity change below about -50%; inconclusive means about -30% to -50%; inactive means above about -30%;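 also: stimulus is agonist 54-4 at its EC80 concentration; % is scaled to controls: 0 for no effect and ±100 for the full control effect; the text of the record puts the active cut at -80%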
Target sequence (Q9GZU1 whole entry, looked up): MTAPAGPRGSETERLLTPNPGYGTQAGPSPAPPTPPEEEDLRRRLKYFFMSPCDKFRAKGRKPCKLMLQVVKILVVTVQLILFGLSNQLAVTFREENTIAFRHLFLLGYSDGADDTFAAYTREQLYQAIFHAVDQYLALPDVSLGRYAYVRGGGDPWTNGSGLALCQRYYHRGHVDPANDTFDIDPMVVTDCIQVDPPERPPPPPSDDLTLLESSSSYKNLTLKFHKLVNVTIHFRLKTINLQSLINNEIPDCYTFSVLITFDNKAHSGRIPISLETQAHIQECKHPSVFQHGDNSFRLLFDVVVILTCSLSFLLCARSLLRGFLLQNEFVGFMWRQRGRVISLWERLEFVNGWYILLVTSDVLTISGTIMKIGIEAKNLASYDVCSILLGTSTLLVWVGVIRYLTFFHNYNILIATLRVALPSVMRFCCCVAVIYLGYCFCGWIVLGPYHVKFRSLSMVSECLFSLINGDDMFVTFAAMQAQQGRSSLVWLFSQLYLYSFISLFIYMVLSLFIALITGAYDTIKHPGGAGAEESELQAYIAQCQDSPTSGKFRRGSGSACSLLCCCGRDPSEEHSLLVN
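Tet-induced TRPML1-DL cells loaded with Ca8 no-wash calcium dye were read kinetically on FDSS. Compound addition was followed by EC80 agonist 54-4 (4 uM final); inhibition was read over 110 s.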
gsp antag = gsp mutant antagonism; Potency, µM (titrated, usually from 76.9 µM), without a hit: top-dose activity change, negative = inhibition, hits mostly inhibitors; 340,000 compounds, 0.4% hits; gsp-mutant cells, cAMP HTRF, 30 min; control for the full effect not named in the record; active = falling curve of any shape with a large fitted effect; inconclusive = falling curve, mostly with a smaller effect; inactive = flat or rising curve; cell line not stated here;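 also: intracellular cAMP measured with PDE inhibitor Ro 20-1724 present during compound exposure; potency is read from the fitted curve at half-maximal effect; % is scaled to controls: 0 for no effect and ±100 for the full control effect; nearly all actives have a fitted effect of over 65% in size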
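HTRF cAMP measurement after 30 min RT detection following 30 min, 37C compound treatment alongside […] (added as 300 uM solution) in G418-selected cells seeded at 2000/well and grown 16–24 h.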
TRPV1 potentiator = human TRPV1 potentiation; TRPV1-expressing cells, Fluo-8 calcium influx, capsaicin EC20 potentiation; host cell line not named in the record; control for the full effect not named in the record; potentiation, % at 8.33 µM; 320,000 compounds, 0.02% hits; Q8NER1; active means potentiation above 80%; inconclusive means 30% to 80%; inactive means below 30%; also: 0% is about no effect
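TRPV1-expressing cells were cultured overnight at 35.5C and loaded with Fluo-8 calcium dye for 40 to 90 min at room temperature. After a 10 s baseline, compound was added and calcium influx was read kinetically for 3 min (ex 480/em 520 nm).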
gsp ag = agonists of gsp mutant (McCune-Albright syndrome). Potency, µM (titrated, usually from 76.9 µM), inactives show at the top dose activation (cAMP increase), actives largely listed as activators. 340,000 compounds, 0.13% hits. gsp mutant cells, cAMP HTRF, 30 min; control for the full effect not named in the record. AID 624287; active = well fitted activation curve with a large enough effect; inconclusive = small, poorly fitted or top-dose-only effect, or another doubt; inactive = no such curve, though single readings can be large or run the other way; cell line not stated here;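 also: phosphodiesterase inhibitor Ro 20-1724 added with compounds to block cAMP breakdown; potency is read from the fitted curve at half-maximal effect; nearly all actives have a fitted effect of over 60% in size; about a fifth of the inactives were tested at one dose only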
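Cells in DMEM/10% FBS with G418 were pretreated with compounds in DMSO plus […] (300 uM stock) for 30 min at 37C. cAMP was measured by HTRF (cAMP-d2 plus anti-cAMP antibody-K) after 30 min at room temperature.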
ClpP mod = qHTS Assay for Activators of ClpP; 340,000 compounds, 1.9% hits; purified B. subtilis ClpP, FRET peptide cleavage, 20 min; Potency, µM (titrated, usually from 57.5 µM), without a hit: top-dose activity change, negative = active; active = well fitted falling curve with a large enough effect; inconclusive = small, poorly fitted or top-dose-only effect; inactive = no such curve, though single readings can be large or run the other way; also: potency is read from the fitted curve at half-maximal effect; the source files actives as falling curves though it sought activators and does not explain the sign; nearly all actives have a fitted effect of over 65% in size; many hits overshoot -100%
Target sequence (P80244 whole entry, looked up): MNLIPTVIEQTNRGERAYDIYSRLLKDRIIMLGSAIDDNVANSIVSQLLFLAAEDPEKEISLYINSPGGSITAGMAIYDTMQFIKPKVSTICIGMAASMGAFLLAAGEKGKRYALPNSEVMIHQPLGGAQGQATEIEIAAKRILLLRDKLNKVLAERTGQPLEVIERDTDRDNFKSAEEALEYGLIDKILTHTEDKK
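Buffer: 100 mM Tris/HCl pH8, 100 mM KCl, 0.05% low protease BSA, 2.5% glycerol, 0.01% Tween-20. ClpP 10 microg/mL final; 20 min RT; delta FRET normalized to ADEP and DMSO controls.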
Menin-MLL FL inh = inhibitors of human menin-MLL interaction, wild-type MLL peptide | 290,000 tested, under 10 active | Fluorescence polarization, fluorescein-MLL peptide displacement from menin | FP activity change, % at 61.4 µM; inconclusive = falling polarisation curve, or a change in total fluorescence; inactive = total fluorescence flat and polarisation flat or rising; no compound was filed as active; the % refers to the polarisation; negative = inhibition;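 also: % of control where 0% means no effect; inhibitors lower the polarisation; unlabelled MLL peptide was the positive control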
* marks the source's active call; other numbers are inactive results; ? = inconclusive; · = not tested or not shown; [ ] = another dose, or the depositor's remark.

Preview:
mol | Sfp PPTase inh | TRPML1 inh | gsp antag | TRPV1 potentiator | gsp ag | ClpP mod | Menin-MLL FL inh
COc1ccc(C(=O)N2CCN(S(=O)(=O)c3ccc(C)cc3C)CC2)cc1OC | -13% | -4 | -2% | -5 | -35% | -0.2% | -1.3
CS(=O)(=O)c1ccc2nc(NC3(C(F)(F)F)N=C4SCCN4C3=O)sc2c1 (stereo not given) | 23% | -2 | -4% | -23 | -19% | -0.4% | 4.9

The listing, repeating the preview:
mol | Sfp PPTase inh | TRPML1 inh | gsp antag | TRPV1 potentiator | gsp ag | ClpP mod | Menin-MLL FL inh
COc1ccc(C(=O)N2CCN(S(=O)(=O)c3ccc(C)cc3C)CC2)cc1OC | -13% | -4 | -2% | -5 | -35% | -0.2% | -1.3
CS(=O)(=O)c1ccc2nc(NC3(C(F)(F)F)N=C4SCCN4C3=O)sc2c1 (stereo not given) | 23% | -2 | -4% | -23 | -19% | -0.4% | 4.9
O=C1OC(N2C(=O)CC[C@H]2C(=O)Nc2cccc(F)c2)c2ccccc21 (stereo not given in full) | 14% | · | 13% | -5 | · | 0.5% | -2.6
COc1ccc(-n2ccnc2SCC(=O)NCc2ccccc2)c(OC)c1 | 17% | 31 | 1% | 7 | 4%[15.4 µM] | 0.4% | -7.1
COc1ccc(CCNC(=O)C2CCN(C(=O)c3ccc(Br)cc3)CC2)cc1 | 23% | 18 | 3% | 7 | 5%[15.4 µM] | -0.2% | -0.8
COC1=CC(=O)C(OC)=C(OC)C1=O | · | 1 | -1% | · | -16% | -1.4% | ·
CC(C)(C)C(=O)Nc1ccc(-c2cc3cc(Cl)ccc3o2)cc1 | 14% | 8 | 8% | 2 | 3% | -13% | 5.2
Cn1c(NCCCN2CCOCC2)nc2c1c(=O)n(Cc1ccc(Cl)cc1)c(=O)n2C | 8% | -9 | -4% | -5 | ? | -0.1% | 2.6
CN(C)S(=O)(=O)c1ccc(Cl)c(NC(=O)CSc2nc3ccccc3c(=O)n2CCCN2CCOCC2)c1 | 8% | 8 | -7% | 1 | 8% | 0.4% | -1.3
CCOc1ccc(CNC(=O)CCc2cn(C)c3ccccc23)cc1OC | 19% | 18 | 0% | 10 | -11%[15.4 µM] | · | -1.9
COC(=O)c1[nH]c(C)c(/C(O)=C2\C(=O)C(=O)N(CCN3CCOCC3)C2c2ccco2)c1C (stereo not given) | -3% | 13 | 4% | -3 | 15%[15.4 µM] | 0.6% | 3.0
Nc1nc(N)c(-c2cccc(C(F)(F)F)c2)c(Cc2cccc(C(F)(F)F)c2)n1 | · | 19 | 2% | · | 3% | 0.6% | ·
COC(=O)C1C(O)=C(C=Nc2cccc3ccccc23)C(=O)CC1(C)C (stereo not given) | -4% | -16 | -10% | -9 | -1%[15.4 µM] | -0.9% | 1.3
COc1ccc(NC(=O)CN(C)CC(=O)Nc2sc3c(c2C(N)=O)CCC3)cc1 | · | -3 | 17% | -14 | ? | -2.3% | ·
Cc1cc(C(=O)COc2cccc([N+](=O)[O-])c2)c(C)n1C1CC1 | · | 17 | -17% | -14 | 30% | -3.1% | ·
Cc1nn(-c2ccccc2)c(=S)n1-c1ccccc1 | 11% | -1 | 10% | -31 | 6% | -1.4% | -0.5
N=C(c1cccc([N+](=O)[O-])c1)N1CCCCC1 | 9% | 17 | 2% | 3 | -8% | · | 12
Cc1nn(Cc2ccccc2)c(C)c1NC(=O)c1cccs1 | 30% | -4 | 5% | 7 | -70%[inhibitor] | -0.5% | 6.9
COc1ccc(C(=O)NCC(c2ccco2)N2CCOCC2)cc1OC (stereo not given) | · | 14 | 8% | 2 | -4%[15.4 µM] | 2.0% | ·
Cc1cc(NCc2ccccc2)nc(N2CCOCC2)n1 | 5% | 17 | 5% | 0 | -16% | -5.5% | 3.3
COc1cccc(N2CCN(C(=O)C3CCCN(c4ncnc5c4nc4n5CCCCC4)C3)CC2)c1 (stereo not given) | -11% | -24 | -26% | -21 | 23% | 2.2% | -1.5
CCC(=O)Nc1ccc(C(=O)CSc2nnc(-c3ccc(NS(C)(=O)=O)cc3)n2C)cc1OC | 1% | 6 | 3% | -1 | ? | 0.2% | 0.1
COc1cccc(CNc2cc(CSc3ccc(Cl)cc3)nc(C)n2)c1 | 6% | -18 | -20% | 21 | -1% | -3.9% | 2.7
O=C(CCl)N=c1sccn1Cc1ccc(Cl)cc1Cl | 0% | 12 | -9% | 22 | 4% | · | 4.9
COc1ccc2[nH]cc(S(=O)(=O)c3ccc(C(C)C)cc3)c(=O)c2c1 | 7% | 2 | 0% | -2 | -7% | -4.6% | 0.4
FC(F)(F)C12CC(c3ccccc3)=NCCN1CCN2 (stereo not given) | -17% | 4 | 6% | -10 | ? | -28% | -6.5
COCCn1c(=NC(=O)CCS(=O)(=O)c2ccccc2)sc2c(OC)ccc(OC)c21 | 10% | -9 | 17% | -1 | -17%[15.4 µM] | ? | ·
COCCNC(=O)CSCc1c(F)cccc1Cl | ? | 0 | 9% | 18 | 15% | -1.1% | -1.2
CS(=O)(=O)Nc1ccc(C(=O)NCCSCc2c(F)cccc2Cl)cc1 | 9% | 18 | -2% | 8 | -10%[15.4 µM] | · | 0.3
Cc1cnc(C)c(N2CCC(C(=O)NC(C)c3cccs3)CC2)n1 (stereo not given) | 11% | 1 | -15% | -24 | -1% | -1.2% | 1.0

Remaining list, next part.
mol | Sfp PPTase inh | TRPML1 inh | gsp antag | TRPV1 potentiator | gsp ag | ClpP mod | Menin-MLL FL inh
COc1ccc(/C=C2\C(=O)NC(=S)N2C(=O)c2ccc(C)cc2)cc1 | ? | 1 | -25% | 3 | ? | -4.8% | ?
CN(CC(=O)Nc1ccc(F)cc1)C(=O)Cn1cnc2ccc(Cl)cc2c1=O | · | -2 | -11% | 3 | 2% | -1.6% | ·
Cc1ccc(Cc2cnc(NC(=O)c3ccco3)s2)cc1 | 5% | -5 | -7% | 2 | -39%[inhibitor] | -2.7% | 1.7
C=CC[C@H](CC(=O)N(CCO)Cc1ccccc1)C(=O)N[C@H](COC(=O)[C@@H](CC=C)Cc1ccc(F)cc1)Cc1ccccc1 | · | -5 | ? | · | -31%[inhibitor] | 1.8% | ·
CCOC(=O)C1=C(CSc2nc3ccccc3s2)NC(=O)NC1c1ccc(OC)cc1 (stereo not given) | -11% | -1 | -8% | 2 | 8% | -3.7% | -0.2
Cc1cc(OC(C)C(=O)N2CCN(c3ccccc3)CC2)c2c(C)c(C)c(=O)oc2c1 (stereo not given) | -8% | -11 | 3% | 6 | -22% | ? | ·
CCC1CCCCN1C(=O)CSc1nnc(-c2ccc(OC)cc2)o1 (stereo not given) | 2% | 3 | -9% | -8 | -28% | -3.6% | 0.8
Nc1ccc(NC(=O)Nc2ccc(N)cc2)cc1 | 11% | -3 | ? | 2 | -21% | 1.0% | 3.4
Fc1ccccc1NC(=S)N1CCN(c2ccccn2)CC1 | 1% | -2 | 2% | 0 | ? | -6.8% | 1.9
O=C(COC(=O)CNC(=O)c1ccccc1)NC1CCCCC1 | · | -14 | -1% | -4 | 13%[15.4 µM] | -22% | ·
Cc1ccc(C)c(S(=O)(=O)N2CCN(CC(=O)Nc3ccc4c(c3)CCC4)CC2)c1 | -3% | -1 | -3% | 9 | -28% | 0.8% | 2.2
CCn1cc(C(=O)NCCC(=O)NC(C)C)c(=O)c2cc3c(cc21)OCO3 | 8% | -9 | -6% | 1 | 29% | 3.9% | -0.8
Cc1ccc(SCCN2CCN(Cc3ccccc3)CC2)cc1 | -50% | 13 | 8% | -24 | 14% | -1.3% | 1.4
O=C(OC1CCN(c2ncc(C(F)(F)F)cc2Cl)CC1)c1cccc(C(F)(F)F)c1 | -3% | -6 | 13% | 23 | -8% | 0.9% | 8.1
CC(=O)c1ccc(N2CCN(CC3CCCCC3)CC2)cc1 | -26% | -13 | 5% | ? | -5%[15.4 µM] | -2.9% | 1.1
COc1ccc(S(N)(=O)=O)cc1C(=O)NCC(C)(C)N1CCCCC1 | 5% | 8 | -10% | -11 | 0%[15.4 µM] | -1.7% | -7.1
O=C(C1CC1)N(CCN(Cc1ccccc1)C(=O)C1CC1)Cc1ccccc1 | 15% | 3 | -14% | 13 | -21% | 0.3% | 1.2
C[C@H](CO)N1C[C@H](C)[C@@H](CN(C)S(C)(=O)=O)Oc2ccc(NC(=O)C3CCCCC3)cc2C1=O | · | 1 | -1% | · | · | -3.3% | ·
COc1ccc2[nH]c3c(c2c1)CCN1C(=O)N([C@@H](C)C(=O)NCc2ccccc2)C(=O)[C@]31C | -2% | · | -6% | 1 | · | -0.5% | -5.5
Fc1ccc(F)c(CN2CCN(c3ncccn3)CC2)c1 | 5% | -8 | 11% | -2 | 0% | -1.4% | 3.7
Cc1ccccc1Nc1nc(CSc2nnnn2-c2ccccc2)cs1 | 45µM* | 3 | 0% | -4 | 31% | 0.4% | 6.9
COCCNS(=O)(=O)c1ccc2c(c1)oc(=O)c1cc(S(=O)(=O)NCCOC)ccc12 | 11% | · | · | -7 | · | · | 0.1
CCN(CC)Cc1c(C)[nH]c2ccc(NC(C)=O)cc2c1=O | · | 13 | · | · | 8% | 4.0% | ·
CC(=O)c1ccc(Oc2ncnc3sccc23)c(CN2CCOCC2)c1 | 1% | 20 | 6% | 14 | -12% | -1.0% | -2.4
CCO[C@@H]1OC(C(=O)N2CCOCC2)=C[C@H](C2CCCCC2)[C@H]1CCCO | 5% | -15 | 7% | -8 | -36% | 3.8% | -2.4
CCn1c(C)c(C2=CCN(S(=O)(=O)c3ccc(C)cc3)CC2)c2ccccc21 | ? | -1 | -2% | -4 | 5% | -13% | ?
Cc1ccc(S(=O)(=O)N(C)CC(=O)N2CCN(c3ccccn3)CC2)cc1 | 16% | 8 | -19% | 28 | 7% | ? | 5.3
Cc1cc(Br)cc(C)c1NC(=S)NC(=O)CC(C)C | 18% | 10 | 16% | -27 | 18% | -0.8% | 2.6
CC(C)COc1ccc(C(=O)OCCN2CCCCC2)cc1 | 6% | 15 | 11% | -1 | -53%[inhibitor] | · | -3.0

Random draw from the library (roughly 4.9% active in at least one column).
